PKD1 inh = PKD1 (human) kinase inhibition; Q15139; PKD1 kinase fluorescence polarization assay; inhibition, %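 (about 10 µM by stock and volumes)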; actives 0.056% (n = 200,000);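 active = inhibition of 50% or more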;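 note: controls were vehicle for no effect and a reference inhibitor for full effect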
Target sequence (Q15139 whole entry, looked up): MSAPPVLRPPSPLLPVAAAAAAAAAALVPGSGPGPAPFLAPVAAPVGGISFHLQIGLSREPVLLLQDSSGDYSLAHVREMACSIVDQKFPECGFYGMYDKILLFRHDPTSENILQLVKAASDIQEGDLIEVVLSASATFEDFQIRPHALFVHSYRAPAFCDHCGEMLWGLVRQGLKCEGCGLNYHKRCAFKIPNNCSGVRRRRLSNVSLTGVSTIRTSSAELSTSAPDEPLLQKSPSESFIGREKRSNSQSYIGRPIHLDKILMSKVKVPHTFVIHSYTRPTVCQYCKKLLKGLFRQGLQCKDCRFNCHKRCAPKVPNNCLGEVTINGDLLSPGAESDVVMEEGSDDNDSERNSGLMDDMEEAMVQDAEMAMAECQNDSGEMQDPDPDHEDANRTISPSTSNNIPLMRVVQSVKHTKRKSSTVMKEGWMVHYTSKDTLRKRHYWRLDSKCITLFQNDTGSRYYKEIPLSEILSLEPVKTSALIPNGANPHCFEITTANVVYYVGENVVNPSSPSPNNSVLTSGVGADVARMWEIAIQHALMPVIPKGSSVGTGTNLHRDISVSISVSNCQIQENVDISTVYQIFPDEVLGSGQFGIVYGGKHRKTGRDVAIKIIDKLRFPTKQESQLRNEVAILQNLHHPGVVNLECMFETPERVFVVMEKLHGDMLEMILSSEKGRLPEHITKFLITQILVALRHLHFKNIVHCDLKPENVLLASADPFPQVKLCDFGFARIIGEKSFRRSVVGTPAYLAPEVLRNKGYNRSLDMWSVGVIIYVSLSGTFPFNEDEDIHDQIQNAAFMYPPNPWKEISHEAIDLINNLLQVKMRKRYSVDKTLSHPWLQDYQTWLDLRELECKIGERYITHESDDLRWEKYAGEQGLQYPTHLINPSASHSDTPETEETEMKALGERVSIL
Insulin prom inh = TRM-6 insulin promoter activity inhibition; TRM-6 cells (human fetal islet line), insulin promoter-eGFP reporter, imaging; reporter expression induced with tamoxifen; inhibition, % at 2 µM; actives 0.9% (n = 130,000); AID 1273;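 active = inhibition above the mean plus 3 SD, with well images judged a real hit on visual review, cut at about 60% in these data, passing the limit was not always enough; inconclusive = inhibition over the cutoff but images rejected on review; inactive = inhibition not above the cutoff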
RGS16-Gao = RGS16-Galphao interaction regulator (human) | bead-based flow cytometry RGS16-Galphao binding, fluorescence; actives lie on both sides | binding response (% of control), % at 10 µM | actives 0.38% (n = 220,000);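 active = below 25% or above 175%, edge rows of some plates excepted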;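 note: Galphao activated by GDP with aluminum fluoride before binding; 100% = wells without compound and 0% = beads without RGS; some results beyond the cut were filed as inactive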
HSV replic up = increases HSV replication in cells | HSV replication augmentation in cells, fold increase | AID 1956 | actives 0.005% (n = 220,000) | maximum fold increase;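 active = peak rise of 1.5-fold or more in the series; inconclusive = self-fluorescent or not available for retest; tested in PC3 cells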;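 note: first round at 10 µM; read as green reporter fluorescence; hits show the peak of a series up to 25 µM; 1 = signal of infected wells without compound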
GALR2 agonist = agonists of human galanin receptor 2 (GALR2); activation, %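 (tested at 5 µM)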; actives 0.48% (n = 140,000); GALR2-expressing cells, agonist activation read-out;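 active = above mean plus 3 SD of all compounds, about 5% in these data, not always enough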;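 note: 0% = vehicle buffer wells and 100% = reference agonist at full effect; tested in CHO reporter cells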
Insulin prom inh cell count = second read-out of Insulin prom inh, no call of its own (marks repeat the call); normalized cell count, %; measured here: cell count, toxicity; reference of the scale not given here;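 cells exposed to compound for 48 h; stained nuclei by imaging scaled within each plate; lower means fewer cells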
HSV replic up primary fold = also measured in HSV replic up; calls as there; fold increase; compound at 10 µM; measured here: primary screen fold increase 10 uM; tested in PC3 cells;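 GFP signal in the first replicate; 1 = infected wells without compound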
An asterisk follows results filed as active; i = inactive; ? = inconclusive; · = not tested or not shown.

SMILES	PKD1 inh	Insulin prom inh	Insulin prom inh cell count	RGS16-Gao	HSV replic up	HSV replic up primary fold	GALR2 agonist
O=C(NCC1CCCO1)c1ccc(NC(=O)C2C3C=CC(C3)C2C(=O)O)cc1 (centres undefined)	-3	16	77	102	i	0.92	-3.7
O=c1[nH]c(-c2ccccn2)nc(C(F)(F)F)c1Br	0	·	·	92	i	1	·
COC(=O)C1=CC(C(=O)c2cccs2)=NN(c2ccc(OC)cc2)C1C(=O)OC (centres undefined)	-1	-143	116	99	i	0.95	-0.5
O=C(Cn1cnc2c(cnn2-c2ccccc2)c1=O)N1CCCc2ccccc21	1	46	114	100	i	0.91	-2.2
N#CCCCn1c(O)c(N=NC(=O)C(O)c2ccccc2)c2ccccc21 (centres undefined)	·	·	·	101	i	1.2	·
O=C(N/N=C\c1ccc(OCC(=O)N2CCCC2)cc1)C(=O)Nc1ccccc1F	-5	8	124	103	i	0.95	-2.2
Cn1c(CO)cnc1SCc1ccccc1	-3	-20	133	102	i	0.93	-1.1
Cc1cccc(CSC(Nc2ccc(F)cc2)=C(C#N)C#N)c1	-6	-44	164	100	i	0.95	-0.5
CC(C)(C)c1cc(C(=O)Nc2cccc3ccccc23)ccn1	-17	-12	146	105	i	0.91	-0.8
CCCNC(=O)COc1ncnc2sc(C)c(C)c12	0	-2	102	100	i	0.84	-1.4
O=C(O)Cn1cc(C(=O)c2cccs2)c2ccccc21	1	·	·	98	i	0.99	-0.9
NC(=O)C1CCN(C(=S)c2cccs2)CC1	8	26	130	107	·	·	-2.6
COc1ccc(CN2CCCC(C(=O)c3ccc(Cl)cc3)C2)cc1Cn1cccn1 (centres undefined)	-8	·	·	98	i	0.9	·
CCOc1ccc(S(=O)(=O)NCCC(=O)NC2=NCCS2)cc1	6	21	74	103	i	0.79	-0.8
COC(=O)CCCC(=O)Nc1c(F)c(F)c(F)c(F)c1F	6	-27	94	104	i	0.93	-2.1
O=C1C2CC=CCC2C(=O)N1CC(=O)N(Cc1ccccc1)C1CCS(=O)(=O)C1 (centres undefined)	-9	·	·	103	i	0.99	-1.0
CCN(CC)CCOC(=O)c1ccc(Cl)cc1	-1	-25	100	104	i	1	-0.7
CC(C)C(=O)Nc1ccc(NC(=O)c2ccccc2Cl)nc1	20	-19	58	98	i	0.73	-3.0
c1cncc(-c2nc3c(ccc4ccccc43)[nH]2)c1	9	·	·	102	i	0.85	-2.1
O=C(CSC(=S)N1CCSCC1)c1ccc(Cl)cc1	-4	-19	46	51	i	1.1	·
CCOC(=O)Cc1nnc(NC(=O)C(CC)Sc2nnc3c4ccccc4n(C)c3n2)s1 (centres undefined)	-4	-3	124	104	i	1	0.3
CN(CC(=O)NCCc1ccccc1)S(=O)(=O)c1cnc[nH]1	-16	19	145	56	i	1.1	0.7
CCOC(=O)c1ccc2c(c1)N(CC)/C(=C\C=C1/SC(=S)N(CC)C1=O)N2CC	0	-248	71	·	·	·	-0.6
O=C(Nc1ccc(Oc2cccc(C(F)(F)F)c2)nc1)c1cccs1	·	·	·	104	i	0.93	·
O=C(Nc1ccc2nc3n(c(=O)c2c1)CCCC3)c1cc([N+](=O)[O-])ccc1F	-15	28	64	103	i	0.46	1.7
O=C(Nc1cccc(Cl)c1)Nc1cccc(Cl)c1	-7	-100	68	102	i	0.88	-1.6
O=c1c2c(nc3cc(-c4ccc(F)cc4)[nH]n13)CCC2	4	·	·	100	i	1.1	-1.6
C=CCc1c(C)nc(-c2ccccc2)nc1N/N=C(\C)c1ccc(N)cc1	-5	-24	83	111	i	1	-0.6
CN(C)c1ccc(N=Nc2ccc(S(=O)(=O)O)cc2)c2ccccc12	0	29	106	104	i	0.87	·
O=C(O)C=C1CCN(c2ncc(C(F)(F)F)cc2Cl)CC1	-8	23	135	90	i	0.98	0.6
COc1ccc(NC(=O)C2CCCN(S(=O)(=O)c3c(C)[nH]c(=O)[nH]c3=O)C2)cc1OC (centres undefined)	-3	50	80	105	i	0.99	·
Cc1nn(Cc2ccc(Cl)c(Cl)c2)c(C)c1NC(=O)c1sc2ccccc2c1Cl	6	20	81	100	i	0.76	-2.1
Cn1c(CO)cnc1SCC(=O)c1ccc(Cl)cc1	-1	·	·	98	i	0.95	·
CC(C)NC(=O)CCn1nc(-c2ccc(Cl)cc2)c2ccccc2c1=O	-3	·	·	111	i	0.93	·
CCN1CCN(Cc2ccc(NC(=O)CC3Oc4ccc(C)cc4NC3=O)cc2)CC1 (centres undefined)	-8	·	·	107	i	1	-2.2
CCOC(=O)c1cc2cc(OC)ccc2nc1C	-18	67	108	96	i	1	-0.5
CCOC(=O)c1c(C)[nH]c(C(=O)/C(C#N)=C/c2ccc(OC(F)F)c(OC)c2)c1C	-3	·	·	98	?	·	-1.3
COc1ccc(C2N(c3ccc(Cl)cc3)N=C(C(C)=O)N(C)N2C(C)=O)cc1 (centres undefined)	-5	·	·	105	i	1	·
O=C(O)c1ccc(Sc2nnnn2-c2ccccc2)c([N+](=O)[O-])c1	-9	12	128	107	i	0.98	-4.7
O=C(c1ccc(CNc2c(N3CCCC3)c(=O)c2=O)cc1)N1CCN(C2CCCCC2)CC1	-9	-30	118	98	·	·	-0.3
CCCCNC(=O)C(=O)NC(C)CCc1ccccc1 (centres undefined)	2	·	·	98	·	·	-3.3
Cc1cc(C(=O)N2CCN(c3ncccn3)CC2)c2cc(F)ccc2n1	3	·	·	103	i	0.84	-2.8
N#Cc1c(-c2ccccc2)nc(SCC(=O)Nc2nnc(C(F)(F)F)s2)[nH]c1=O	-7	25	88	112	i	0.92	·
CC1=C(C(=O)NC(C)C)C2(CCC(C)CC2)OC1=O (centres undefined)	-21	·	·	98	i	1	-1.1
C=CCSc1nc2ccsc2c(=O)n1-c1cccnc1	-4	·	·	104	i	0.74	·
COc1cc(/C=C/C(=O)O)cc(S(=O)(=O)NCCCC(=O)O)c1OC	-3	·	·	109	i	0.89	·
CC1(c2cccc([N+](=O)[O-])c2)CC(C)(C)N(C(=O)c2ccccc2)c2ccccc21 (centres undefined)	-6	-31	136	106	i	0.95	-1.5
COc1cccc(CNC(=O)CCC2CCCN(c3cc(C)nc(N4CCCC4)n3)C2)c1 (centres undefined)	2	·	·	90	i	0.91	·
COc1ccc(/C=N/NC(=O)c2ccn[nH]2)cc1COc1ccc(Cl)cc1Cl	2	-16	54	106	i	0.64	0.9
Cc1cc(C)c(C(=O)CSc2nnc(C)c(=O)[nH]2)cc1C	9	-64	67	101	i	1	·
Cc1ccc(C)c(N=Nc2nc3ccccc3n2C)c1	-1	10	129	99	i	0.84	-2.5
CCN(CC)CCN(C(=O)c1ccc(Br)s1)c1nc2cc3c(cc2s1)OCCO3	-2	22	87	106	i	1.1	·
CCCOC(=O)CSc1nnc(-c2ccc(Cl)cc2Cl)o1	-4	·	·	100	i	0.95	-1.0
COc1cc(C2c3c(oc4ccccc4c3=O)C(=O)N2Cc2ccncc2)ccc1O (centres undefined)	-9	·	·	102	i	0.82	-1.2
O=C(OCC(=O)N1CCc2ccccc21)c1ccc(Cl)nc1	-2	46	83	124	i	1.1	-2.2
CC12CC3CC(C)(C1)CC(CN1CCOCC1)(C3)C2	-3	19	94	117	i	1	0.6
Cc1cc(C(=O)COc2cccc(-n3cnnn3)c2)c(C)n1-c1ccccc1	0	20	83	98	i	0.86	-1.0
c1ccc(C2=Nc3ccccc3SC2c2nc3ccccc3[nH]2)cc1 (centres undefined)	-6	25	107	135	i	0.99	-4.6
CC(C)COc1ccc(Br)cc1CNC(C)(C)C	2	·	·	98	i	0.94	·
O=[N+]([O-])c1ccc(Oc2cccc(Br)c2)c2ccncc12	-2	18	85	100	i	0.79	-0.7

Quoted at random: 2 records from the list.
SMILES	PKD1 inh	Insulin prom inh	Insulin prom inh cell count	RGS16-Gao	HSV replic up	HSV replic up primary fold	GALR2 agonist
COc1ccc(/C=N/NC(=O)c2ccn[nH]2)cc1COc1ccc(Cl)cc1Cl	2	-16	54	106	i	0.64	0.9
Cc1ccc(C)c(N=Nc2nc3ccccc3n2C)c1	-1	10	129	99	i	0.84	-2.5

Continuation.
SMILES	PKD1 inh	Insulin prom inh	Insulin prom inh cell count	RGS16-Gao	HSV replic up	HSV replic up primary fold	GALR2 agonist
NC(N)=NS(=O)(=O)c1ccc(NC(=S)NC(=O)c2ccccc2)cc1	·	·	·	102	i	0.91	·
O=CN(CCN(C=O)CN1CCCCC1)CN1CCCCC1	6	·	·	100	i	0.98	-0.2
CCOc1cc(/C=N/NC(=O)Cc2ccc(C(F)(F)F)cc2[N+](=O)[O-])c(Br)cc1OC	0	·	·	107	i	0.71	0.1
O=C(COC(=O)c1ccccc1-c1nc2ccccc2s1)NC1CCS(=O)(=O)C1 (centres undefined)	-11	·	·	99	i	1	-1.2
COc1ccc(NCc2n[nH]nc2-c2ccccc2)cc1Cl	-3	-13	113	103	i	0.98	-1.2
CCCN(CCC)CCCNC(=S)Nc1ccc2nc3n(c(=O)c2c1)CCCCC3	-18	-16	115	109	i	0.93	0.5
NC(=O)C1CCN(C(=O)/C=C/c2cccc(Br)c2)CC1	·	·	·	104	i	0.9	·
Cc1cc(S(=O)(=O)N2CCCC2)ccc1OCC(=O)NC1CCCC1	-6	·	·	107	i	1.1	·
CC1CCN(C(=O)COC(=O)CCc2c[nH]c3ccccc23)CC1	-4	·	·	105	i	1.1	·
CC1(C)CC(=O)C2=C(C1)OC(N)=C(C#N)C21CCN(C(=O)OCc2ccccc2)CC1	-10	22	136	101	i	0.83	-1.6
CCn1c2ccccc2c2cc(C3C(C#N)=C(C)NC(C)=C3C#N)ccc21	-1	-21	128	107	i	1	-0.2
Cc1ccc(C23OC(=O)C(C)(C)C2OC(=O)C3(C)C)cc1 (centres undefined)	0	33	103	96	i	1	-0.8
CCOc1ccccc1N1CCN(S(=O)(=O)c2cccc3nsnc23)CC1	3	-82	100	102	i	0.93	-0.7
Cc1ccc(S(=O)(=O)N(C)CCCC(=O)NCc2ccc3c(c2)OCO3)cc1	0	37	90	117	i	1	-1.5
Cc1nc2ccc(-n3ccc(=O)cc3)cc2s1	13	·	·	120	i	1.3	-3.7
O=C(CCCN1C(=O)/C(=C/c2cccs2)SC1=S)Nc1cccnc1	1	·	·	98	i	0.84	·
CS(=O)(=O)N(Cc1ccco1)CC(O)Cn1c2ccccc2c2ccccc21 (centres undefined)	8	-13	118	7	i	0.87	0.9
O=C(c1ccc(Cl)c(S(=O)(=O)N2CCCC2)c1)N1CCN(c2ccccc2)CC1	5	-22	60	104	i	0.98	·
COc1ccc(NC(=O)Cc2ccc(-c3ccccc3)cc2)cn1	1	·	·	98	i	0.77	·
COc1ccc(OC)c(S(=O)(=O)NC(N)=NCCc2ccccc2)c1	-6	·	·	101	i	1	·

Profiles, quoted from the list.
Entry for CCN(CC)CCOC(=O)c1ccc(Cl)cc1 → PKD1 inh: -1; Insulin prom inh: -25; Insulin prom inh cell count: 100; RGS16-Gao: 104; HSV replic up: i; HSV replic up primary fold: 1; GALR2 agonist: -0.7
Entry for O=CN(CCN(C=O)CN1CCCCC1)CN1CCCCC1 → PKD1 inh: 6; Insulin prom inh: ·; Insulin prom inh cell count: ·; RGS16-Gao: 100; HSV replic up: i; HSV replic up primary fold: 0.98; GALR2 agonist: -0.2
Entry for COc1ccc(NC(=O)Cc2ccc(-c3ccccc3)cc2)cn1 → PKD1 inh: 1; Insulin prom inh: ·; Insulin prom inh cell count: ·; RGS16-Gao: 98; HSV replic up: i; HSV replic up primary fold: 0.77; GALR2 agonist: ·

Further compounds follow:
SMILES	PKD1 inh	Insulin prom inh	Insulin prom inh cell count	RGS16-Gao	HSV replic up	HSV replic up primary fold	GALR2 agonist
O=C1NC2(CCCCC2)C(=O)N1Cc1ccc([N+](=O)[O-])cc1	-1	-11	119	108	i	1.1	-0.2
CC(C)(C)OC(=O)C(Cl)(C(=O)OC(C)(C)C)c1ccc2nnnn2n1	6	8	75	115	i	0.97	·
Cc1cnc(C(=O)OCC(=O)N2c3ccccc3CC2C)cn1 (centres undefined)	-3	·	·	104	i	0.84	·
CCn1c(NC(=O)Nc2ccccc2OC)nc2ccccc21	5	-109	55	103	i	0.86	-0.2
Cc1ccsc1/C=N/Nc1nc(=O)[nH]nc1C	-1	·	·	105	i	1	·
O=C(Nc1ccccc1)N1CCCC1	-3	6	104	·	i	0.91	-1.3
CCc1cccc(CC)c1N(COC)C(=O)Cn1nnc2ccccc21	3	-57	108	109	i	0.85	0.1
Cc1ncc([N+](=O)[O-])n1Cc1cccc2ccccc12	-16	-22	138	117	i	0.98	-0.8
CCCCn1c(=O)[nH]c(=O)c2c1nc(-c1ccncc1)n2CCOC	-10	-21	114	96	i	0.99	1.3

High-throughput results (PubChem)
